Source: PubChem
ClpP mod: qHTS Assay for Activators of ClpP | purified B. subtilis ClpP, FRET peptide cleavage, 20 min | AID 651965, 2013 | Potency, µM (doses to about 57.5 µM), for inactives: at the highest dose activity change, negative = active | hit rate 1.9% among 340,000 | ATP-dependent Clp protease proteolytic subunit (Bacillus subtilis (strain 168)), P80244; active = well fitted falling curve with a large enough effect; inconclusive = small, poorly fitted or top-dose-only effect; inactive = no such curve, though single readings can be large or run the other way; also: the source files actives as falling curves though it sought activators and does not explain the sign; nearly all actives have a fitted effect of over 65% in size; many hits overshoot -100%
Target sequence (P80244 whole entry, looked up): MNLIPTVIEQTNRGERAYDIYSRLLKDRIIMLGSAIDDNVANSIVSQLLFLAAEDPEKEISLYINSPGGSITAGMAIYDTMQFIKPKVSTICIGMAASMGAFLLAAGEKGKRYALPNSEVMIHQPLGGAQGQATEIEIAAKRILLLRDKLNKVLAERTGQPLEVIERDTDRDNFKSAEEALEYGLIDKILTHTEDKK
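Buffer: 100 mM Tris/HCl pH8, 100 mM KCl, 0.05% low protease BSA, 2.5% glycerol, 0.01% Tween-20. ClpP 10 microg/mL final; 20 min RT; delta FRET normalized to ADEP and DMSO controls.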
* = called active by the depositor; ? = inconclusive. Potency is read from the fitted curve at half-maximal effect. These rows are one share of the data. The share of hits here may be higher or lower than overall.

canonical_smiles,ClpP mod
COc1ccc(CNC(=O)Cc2ccc(NC(=O)N3CCSc4ncccc43)cc2)cc1,-8.9%
Cc1ccc(C(=O)NCC(c2ccco2)S(=O)(=O)c2ccc(Cl)cc2)cc1C (centres undefined),-3.5%
COc1cccc(C(=O)NCC(=O)OCc2cc(=O)n3ccsc3n2)c1,-28%
Cc1cc(C)cc(NC(=O)c2cnn(-c3ccc(C)c(C)c3)c2C2CCNCC2)c1,-1.6%
COc1ccc(CNC(=O)Nc2ccc3c(c2)N(C)C(=O)c2ccccc2S3)cc1,-4.6%
O=C(NCCS(=O)(=O)N1CCN(c2ccc(F)cc2)CC1)C1CC(=O)N(c2ccc(F)cc2)C1 (centres undefined),0.4%
Cc1c2cnn(-c3ccccc3)c(=O)c2c(C)n1CCCC(=O)Nc1cccc(F)c1,1.7%
CN(Cc1ccccc1)C(=O)CN1C(=O)CSc2ccc(S(=O)(=O)N3CCOCC3)cc21,-1.4%
Cc1ccc(C(=O)Nc2c(C)nc3ccccn3c2=O)cc1C,-12%
CCc1nn2c(=O)c(S(=O)(=O)Nc3ccc(Br)cc3F)c(C)nc2s1,1.7%
CCOc1ccc(C(=O)NCCn2cc(SCC(=O)Nc3ccccc3)c3ccccc32)cc1,-3.3%
Cc1ccc2scc(N3CCC(C)CC3)c(=O)c2c1,-15%
COc1ccc(Cl)cc1NC(=O)c1cc(C)nc2c1c(C)nn2-c1ccccc1,-0.2%
O=C(Nc1ccccc1C(=O)OCc1cc(=O)n2ccsc2n1)c1ccc(Cl)cc1,-28%
O=C(NC1CCCC1)N[C@@H]1C=C[C@@H](CC(=O)N2CCOCC2)O[C@@H]1CO,-0.1%
CCOc1ccccc1NC(=O)CSc1nc2c(oc3ccccc32)c(=O)n1-c1ccc(C)c(C)c1,-9.1%
CCOc1ccccc1C(=O)N(Cc1cc(OC)c(OC)c(OC)c1)C1CCS(=O)(=O)C1 (centres undefined),-0.4%
Cc1ccc(NC(=O)Cn2nc3c(cc2=O)CCCC3)cc1Cl,0.5%
CCc1ccc(CNC(=O)Cn2nc(-c3ccc(Cl)cc3)ccc2=O)cc1,-21%
Cc1ccccc1-c1nnc(C2CCN(S(=O)(=O)c3ccc(Cl)cc3)CC2)o1,-1.3%
COc1cc2c(-c3ccccc3C)nc3c(c(C)nn3-c3ccccc3)c2cc1OC,4.5%
Cc1nn(CC(=O)Nc2cccc(C(F)(F)F)c2)c(=O)c2nn(-c3ccccc3)c(C)c12,-6.3%
O=C(Nc1ccc(Br)cn1)c1cnn2c1NC(=C1CC1)C=C2C(F)F,0.4%
CC(c1nc2ccccc2[nH]1)n1c(=O)c(-c2ccco2)nc2ccccc21 (centres undefined),4.8%
CCC(c1nnnn1-c1c(C)cccc1C)N1CCN(CC)CC1 (centres undefined),-1.8%
Cc1ccc(CNC(=O)c2cccc(N3CCCS3(=O)=O)c2)cc1,-2.1%
Cc1ccc(C)c(NC(=O)Cn2cc(C(=O)c3ccncc3)c(=O)c3cc(F)ccc32)c1,-4.3%
COC(=O)c1ccc(C2Nc3c(C)cc(C)cc3C3C=CCC32)cc1 (centres undefined),-0.7%
Cc1ccccc1OCc1nnc(SCc2cc(=O)c3ccc(C)c(C)c3[nH]2)n1C,-0.6%
COc1cc(-c2noc(-c3nnn(-c4ccc(Cl)cc4)c3C)n2)cc(OC)c1OC,-4.3%
COC(=O)C[C@@H]1C=C[C@@H](NC(=O)NC2CCCC2)[C@@H](CO)O1,-1.5%
COc1ccc(NC(=O)C(Cc2ccccc2)NS(=O)(=O)c2ccc(Br)s2)cc1OC (centres undefined),2.4%
COC(=O)c1ccc(-n2c(/C=C\c3cccc(Br)c3)nc3ccccc3c2=O)cc1,4.2%
N#C/C(=C\c1ccc(O)cc1)C(=O)NCC1CCCO1 (centres undefined),-6.2%
Cc1ccccc1C(=O)Nc1cccc(C(=O)OCc2cc(=O)n3c(C)csc3n2)c1,-4.8%
CCOC(=O)[C@]12CCCC=C1N(CCc1ccc(OC)c(OC)c1)C(=O)[C@H](CC(=O)N1CCCC1)C2,2.2%
C[n+]1ccc(/C=C/c2ccc(C=S)cc2)c2ccccc21,2.6%
COC(=O)CCCn1cc(CN2CC(N3CCN(C)CC3)CS2(=O)=O)nn1 (centres undefined),-3.8%
CCC(C)c1ccc(OCC(=O)Nc2cccc3ccc(C)nc23)cc1 (centres undefined),-18%
COc1ccc(-c2noc(CSc3nc4ccccc4[nH]3)n2)cc1OC,-0.9%
Cc1cc(C)cc(-n2c(C)cc(C(=O)C(=O)Nc3nnc(C)s3)c2C)c1,-4.0%
CC1(C)OC(=O)C2(Cc3ccccc3N3CCC(c4ccccc4)CC32)C(=O)O1 (centres undefined),-0.7%
O=C(/C=C\c1ccccc1)NC1CC(=O)N(c2ccccc2)C1 (centres undefined),-1.1%
O=C(CCS(=O)(=O)c1nc(-c2ccc3c(c2)OCO3)cc(C(F)(F)F)n1)Nc1ccccc1C(F)(F)F,0.9%
Cn1c(NCCO)nc2c1c(=O)n(Cc1cccc(F)c1)c(=O)n2C,1.2%

More records follow.
| Compound | ClpP mod |
| --- | --- |
| O=C(CCC1N=C2c3ccccc3N=C(SCc3cccc(Cl)c3)N2C1=O)NCCc1ccccc1 (centres undefined) | 4.1% |
| COC(=O)c1ccc2c(c1)N(Cc1ccccc1)C(=O)c1ccccc1S2(=O)=O | 0.7% |
| COc1cc2nc(NCc3ccccc3)n3nc(-c4ccccc4)nc3c2cc1OC | -9.2% |
| CCOc1cc(Cl)c(S(=O)(=O)n2cc(C)nc2CC)cc1Cl | 1.4% |
| Cc1c(/C=C(\C#N)C(=O)Nc2cccc(Cl)c2)c2ccccc2n1Cc1ccccc1 | 0.6% |
| CCn1c(COc2ccc(Cl)cc2Cl)nc2ccccc21 | -3.0% |
| CCCCOCCCNC(=O)C[C@@H]1C[C@@]2(C(=O)OC)CC(C)(C)CC=C2N(CCc2ccc(OC)c(OC)c2)C1=O | 1.3% |
| COc1ccc(-c2n[nH]c3c2C(c2ccccn2)N(C)C3=O)cc1 (centres undefined) | -8.4% |
| Cc1ccc2oc3c(c(=O)c2c1)C(c1ccc([N+](=O)[O-])cc1)N(CCCN1CCOCC1)C3=O (centres undefined) | 3.3% |
| CCCN1CCN(CCNC(=O)Nc2ccccc2OCC)CC1 | -2.7% |

Ordered by number of heavy atoms (rising): five of the compounds above
| Compound | ClpP mod |
| --- | --- |
| CCn1c(COc2ccc(Cl)cc2Cl)nc2ccccc21 | -3.0% |
| CCOc1cc(Cl)c(S(=O)(=O)n2cc(C)nc2CC)cc1Cl | 1.4% |
| CCCN1CCN(CCNC(=O)Nc2ccccc2OCC)CC1 | -2.7% |
| Cc1c(/C=C(\C#N)C(=O)Nc2cccc(Cl)c2)c2ccccc2n1Cc1ccccc1 | 0.6% |
| O=C(CCC1N=C2c3ccccc3N=C(SCc3cccc(Cl)c3)N2C1=O)NCCc1ccccc1 (centres undefined) | 4.1% |

New compounds follow.
| Compound | ClpP mod |
| --- | --- |
| Cc1cccc(-n2c(=O)c3c(c4cc(C)ccc4n3C)n(CC(=O)Nc3ccccc3C(F)(F)F)c2=O)c1 | -22% |
| CCN(CCN(C)C)C(=O)Cn1ncc2c([nH]c3ccc(C)cc32)c1=O | 4.2% |
| CCc1ccc(C(=O)c2cn(CC(=O)Nc3ccc(F)cc3)c3ccc(F)cc3c2=O)cc1 | -0.6% |
| COc1ccc(NC(=O)c2cnn(-c3ccc(C)c(C)c3)c2C2CCNCC2)cc1OC | 1.0% |
| COc1ccc(-c2nnc(SCC(=O)NC3CCCCC3)nc2-c2ccc(OC)cc2)cc1 | ? |
| CCS(=O)(=O)N1Cc2cc(C(=O)NCCOC)nc(-c3cccc(-c4ccncc4)c3)c2[C@H]1CCO | -2.8% |
| O=C(NCc1ccccc1Cl)c1cccn1-c1nnc(N2CCCCC2)s1 | -11% |
| CC(C)(C)CC(C)(C)N=C1Nc2ccc([N+](=O)[O-])cc2N[C@]12C[C@H]1CCCC(=O)N3CC[C@@H](C2)[C@@H]13 | 3.9% |
| O=C(Nc1cccc(C(F)(F)F)c1)Nc1nnc(N2CCCCC2)s1 | 1.8% |
| Cc1ccc(CNC(=O)c2nc(SCc3ccccc3F)ncc2Cl)cc1 | -16% |

Structural class, the entries above containing a CF3 group
| Compound | ClpP mod |
| --- | --- |
| Cc1nn(CC(=O)Nc2cccc(C(F)(F)F)c2)c(=O)c2nn(-c3ccccc3)c(C)c12 | -6.3% |
| O=C(CCS(=O)(=O)c1nc(-c2ccc3c(c2)OCO3)cc(C(F)(F)F)n1)Nc1ccccc1C(F)(F)F | 0.9% |
| Cc1cccc(-n2c(=O)c3c(c4cc(C)ccc4n3C)n(CC(=O)Nc3ccccc3C(F)(F)F)c2=O)c1 | -22% |
| O=C(Nc1cccc(C(F)(F)F)c1)Nc1nnc(N2CCCCC2)s1 | 1.8% |

Next section.
| Compound | ClpP mod |
| --- | --- |
| CCCCN(C)C(=O)CN1C(=O)c2cccnc2Oc2ccc(Cl)cc21 | 0.2% |
| COc1ccc(NC(=O)CNC(=O)Cn2ccc3ccccc3c2=O)cc1OC | -2.4% |
| O=C(Nc1ccc2c(c1)OCCO2)C1c2ccccc2OCC(=O)N1Cc1cccnc1 (centres undefined) | 2.2% |
| COc1cccc(C(=O)NC(c2ccc(Cl)cc2)c2cc(Cl)c3cccnc3c2O)c1 (centres undefined) | -16% |
| COc1ccc(CCNc2ncnc3c2cnn3-c2ccc(F)cc2)cc1 | -17% |
| COc1cc2nc(N3CCCN(C)CC3)nc(N(C)C)c2cc1OC | 4.8% |
| COc1ccc(Cn2c(SCc3ccc(C(=O)NC4CCCCC4)cc3)nc3cccnc32)cc1 | 4.7% |
| Cc1noc2ncnc(N3CCCC(C(=O)Nc4cc(F)ccc4F)C3)c12 (centres undefined) | -1.1% |
| COc1cccc(CNC(=O)c2cc3c(=O)n(Cc4cccnc4)ccc3nc2C)c1 | ? |
| CCOc1ccc(CNC(=O)CN2C(=O)CCn3nc(-c4cn(C)c5ccccc45)cc32)cc1OC | -5.5% |
| COc1ccc(NC(=O)c2sc3nc[nH]c(=O)c3c2C)cc1Cl | 29% |
| CCOc1sc2nc(C)n(CC(=O)Nc3cccc(C)c3)c(=O)c2c1C | -1.1% |
| COc1cc(/C=C(\C#N)c2nc3ccc(C)cc3[nH]2)ccc1OCc1ccc(C)cc1 | -1.9% |
| Cc1sc2ncn(CC(=O)Nc3ccc(F)cc3F)c(=O)c2c1S(=O)(=O)N1CCC(C)CC1 | -1.9% |
| COC(=O)c1ccccc1NC(=O)c1c(C)oc2ncn(C)c(=O)c12 | 0.4% |
| Cc1cccc(C(=O)Nc2nc3nc(-c4ccccc4)cc(=O)n3[nH]2)c1 | -3.4% |
| CCCNC(=O)c1ccc2c(c1)sc1nc(-c3ccc(C)cc3)cn12 | 32µM* |
| CCCCC[C@H]1CCCCC[C@H](O)C[C@@H](O)[C@H](O)/C=C/C(=O)O1 | 3.2% |
| COc1ccc(OC)c(NC(=O)CSc2cn(CC(=O)N3CCOCC3)c3ccccc23)c1 | 0.4% |
| COc1cc(C2C(C(=O)Nc3ccc(C)cc3C)=C(C)Nc3nc4ccccc4n32)cc(OC)c1OC (centres undefined) | -6.3% |
| COc1ccc(Nc2nc(N)nc(N)c2S(=O)(=O)c2ccccc2)cc1 | -2.1% |
| COc1ccc(COC[C@H](CC(C)C)N2CCN(C(=O)c3cccc(C(F)(F)F)c3)CCC2=O)cc1 | -2.6% |
| CCc1ccc(Nc2nc(-c3cc4cccc(OC)c4oc3=O)c(CC)s2)cc1 | -0.5% |
| COCCN1C(=O)CN(S(C)(=O)=O)CC1(C)C(=O)NCc1ccccc1 (centres undefined) | -2.4% |
| CCn1c(CN2CCC(C)CC2)nc2cc(NC(=O)COc3ccc(Cl)c(C)c3)ccc21 | 3.0% |
| O=C(Nc1ccc(F)cc1)C(c1cccc(F)c1)N1CCN(C(=O)c2ccco2)CC1 (centres undefined) | 1.0% |
| Cc1oc2ccc(O)c(CN3CCN(C)CC3)c2c1C(=O)Nc1ccccc1 | -1.5% |
| Cc1ccc(-c2nnc(Nc3cccc(O)c3)c3ccccc23)cc1S(=O)(=O)N1CCCCC1 | -14% |
| CCn1nnc2cc(C(=O)Nc3cccc(C)c3C)ccc21 | -2.2% |
| O=C(COc1ccccc1C(=O)OCC(=O)Nc1cccc2ccccc12)Nc1ccc(Br)cc1 | -0.3% |
| Cc1ccc(C)c(Oc2c(C(F)(F)F)oc3c(CN4CCN(C)CC4)c(O)ccc3c2=O)c1 | 7.2% |
| O=C(Nc1ccc(F)c(Cl)c1)Nc1c[nH]c(=O)[nH]c1=O | 1.1% |
| CCOC(=O)c1c(NC(=O)c2cc(C(C)C)on2)sc(C)c1C | 16% |
| Cc1ccc(CN(C(=O)COc2ccccc2Cl)c2ccccn2)o1 | 2.2% |
| COc1ccc(-c2cc(=O)c3cc(OCC(=O)OC(C)C)ccc3o2)cc1 | 4.1% |
| O=C(CCn1cnc2ccccc2c1=O)NCc1ccccc1Cl | 1.2% |
| Cc1ccc(C)c(N2CCN(CCCNC(=O)Cn3ncc4c([nH]c5ccccc54)c3=O)CC2)c1 | -1.1% |
| COc1ccc(-c2nc3ccccc3s2)cc1NC(=O)COc1ccc(C)cc1 | ? |
| CCCCCCCCN1C(=O)[C@H](CC(=O)NCCC(C)C)C[C@@]2(C(=O)OC)CC(C)(C)CC=C12 | -0.8% |
| Cc1ccc(C)c(N2CCN(C(=O)Nc3cn(CC(C)C)c(=O)c4ccccc34)CC2)c1 | -15% |
| Cc1cc(C)cc(-n2ccn(CC(=O)c3ccc(F)cc3)c(=O)c2=O)c1 | 0.5% |
| O=C(Cc1ccc(F)cc1)NC1CC(=O)N(c2ccccc2)C1 (centres undefined) | 0.8% |
| CCc1nc2cccnc2n1-c1ccc(CC(=O)Nc2c(C)cccc2C)cc1 | -1.5% |
| COc1ccc(CNC(=O)CC2N=C3c4ccccc4N=C(SCC(=O)Nc4ccc(C(C)C)cc4)N3C2=O)cc1 (centres undefined) | 0.5% |
| Cc1ccc(C2CC(=O)Nc3cc4c(cc32)OCCO4)cc1Br (centres undefined) | -1.1% |
